Compound activity from PubChem BioAssay.
TRPML1 inh = human mucolipin-1 channel inhibition. hit rate 0.02% among 390,000. AID 624415. Q9GZU1. TRPML1-inducible cells, Ca2+ dye fluorescence, FDSS; active compounds read low; inhibition of EC80 agonist-evoked calcium signal. activity change, negative = inhibition, % (test concentration not listed); in the data active means activity change below about -50%; inconclusive means about -30% to -50%; inactive means above about -30%;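 also: stimulus is agonist 54-4 at its EC80 concentration; % is scaled to controls: 0 for no effect and ±100 for the full control effect; compound concentration not given in the record; the text of the record puts the active cut at -80%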
Target sequence (Q9GZU1 whole entry, looked up): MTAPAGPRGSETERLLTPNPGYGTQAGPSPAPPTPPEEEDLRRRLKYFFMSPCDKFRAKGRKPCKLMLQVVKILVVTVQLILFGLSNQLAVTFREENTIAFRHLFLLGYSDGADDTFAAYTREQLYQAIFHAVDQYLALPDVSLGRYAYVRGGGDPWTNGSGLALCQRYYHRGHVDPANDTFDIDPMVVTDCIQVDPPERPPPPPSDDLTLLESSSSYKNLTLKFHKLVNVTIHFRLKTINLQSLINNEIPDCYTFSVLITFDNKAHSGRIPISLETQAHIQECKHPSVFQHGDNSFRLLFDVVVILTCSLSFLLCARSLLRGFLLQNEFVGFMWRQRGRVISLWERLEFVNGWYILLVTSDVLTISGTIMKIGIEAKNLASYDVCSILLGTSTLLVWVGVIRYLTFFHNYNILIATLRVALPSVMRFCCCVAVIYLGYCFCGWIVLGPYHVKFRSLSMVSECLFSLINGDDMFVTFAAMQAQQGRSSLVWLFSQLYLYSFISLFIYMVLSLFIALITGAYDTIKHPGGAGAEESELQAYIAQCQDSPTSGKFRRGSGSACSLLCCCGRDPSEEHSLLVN
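TRPML1-DL cells, Tet-induced overnight (~16 h, 37 °C) at 1,500 cells/well, were loaded with Ca8 no-wash dye plus quencher for 45-90 min at room temperature. Compounds were pinned during FDSS kinetic reading; agonist 54-4 at EC80 (4 uM final) then added.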
PINK1 modulator = changes PINK1 expression | PINK1 immunofluorescence, high-content cytometry, 24 h | Potency, µM (titrated, usually from 76.6 µM), for inactives: at the top dose activation (PINK1 increase), usual class: activators | hit rate 0.2% among 410,000; active = well fitted activation curve with a large enough effect; inconclusive = small, poorly fitted or top-dose-only effect; inactive = flat fitted curve, though single readings scatter; cell line not stated here;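 also: potency is read from the fitted curve at half-maximal effect; % of control where 0% means no effect; nearly all actives have a fitted effect of over 65% in size; a mitochondrial uncoupler was the plate control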
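Readout is PINK1 immunofluorescence, quantified alongside mitochondrial, cell and nuclear markers by laser-scanning microplate cytometry. Cells from a stable line were exposed to compound titrations (5 concentrations) for 24 hours, with CCCP controls.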
CtBP-E1A blk = CtBP/E1A binding inhibition; hit rate 0.49% among 340,000; activity change, % (concentration not given with the values); AlphaScreen GST-E1A/His-CtBP binding, 1536-well; active compounds read low; control for the full effect not named in the record; in the data active means activity change below about -65%; inconclusive means about -30% to -65%; inactive means above about -30%; also: % is scaled to controls: 0 for no effect and ±100 for the full control effect
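Homogeneous bead-based format: GST-tagged E1A captured on glutathione donor beads, His-tagged CtBP on nickel acceptor beads; compounds precede bead addition by 2 h at 37 °C.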
Six1-Eya2 inh = blocks human Six1 binding to Eya2. activity change, % (no concentration beside the values). AID 651725. hit rate 0.56% among 360,000. AlphaScreen GST-Six1/His-Eya2 binding, biochemical; active compounds read low; control for the full effect not named in the record; in the data active = activity change below about -65%; inconclusive = about -30% to -65%; inactive = above about -30%; also: % is scaled to controls: 0 for no effect and ±100 for the full control effect
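Homogeneous AlphaScreen proximity assay pairing GST-Six1 with His-tagged Eya2 (added as 5X mix: 250 nM and 500 nM) in 50 mM Tris pH 8.0, 300 mM NaCl, 1 mM TCEP. Glutathione donor and nickel acceptor beads; 1 h, 37 °C, dark.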
D2 ag = agonists of human D2 dopamine receptor (beta-arrestin). hit rate 0.084% among 360,000. DiscoveRx PathHunter D2 beta-arrestin, luminescence, 90 min; 100% = 57 uM dopamine signal. P14416. activation, % (no concentration beside the values); in the data active = activation above about 40%; inconclusive = about 15% to 40%; inactive = below about 15%; also: compound concentration not given in the record; the text of the record calls up to 30% inactive
Target sequence (P14416 whole entry, looked up): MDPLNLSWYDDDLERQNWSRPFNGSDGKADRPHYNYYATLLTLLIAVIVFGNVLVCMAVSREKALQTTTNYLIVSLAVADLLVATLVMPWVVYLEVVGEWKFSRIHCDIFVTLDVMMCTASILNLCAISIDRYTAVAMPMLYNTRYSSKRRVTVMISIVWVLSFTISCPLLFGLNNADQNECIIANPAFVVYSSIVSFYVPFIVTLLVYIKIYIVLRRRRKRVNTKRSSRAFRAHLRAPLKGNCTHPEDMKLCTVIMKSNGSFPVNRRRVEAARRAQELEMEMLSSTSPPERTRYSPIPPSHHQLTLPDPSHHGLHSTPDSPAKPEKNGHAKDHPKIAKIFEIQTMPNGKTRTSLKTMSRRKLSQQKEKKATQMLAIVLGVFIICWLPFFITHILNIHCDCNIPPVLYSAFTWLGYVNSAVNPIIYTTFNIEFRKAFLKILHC
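DiscoveRx PathHunter D2 beta-arrestin cells (2,100/well) attached overnight, then compound-stimulated 90 min at 37 C in HBSS/10 mM HEPES/0.1% Tween-20 buffer; beta-galactosidase complementation read by luminescence after 1 h at ambient temperature. Dopamine 57 uM final (EC100) as control.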
TRPML1 agonist = human mucolipin-1 channel agonism. Q9GZU1. TRPML1-expressing cells, Ca2+ dye fluorescence, FDSS; host cell line not named in the record; reference of the full effect not given here. activation, % (test concentration not listed). hit rate 0.12% among 410,000; in the data active = activation above about 50%; inconclusive = about 30% to 50%; inactive = below about 30%; also: 0% is about no effect; the text of the record puts the active cut at 80%
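Tet-induced TRPML1-DL cells, 1,500 per well, cultured overnight, were loaded with a no-wash Ca2+ dye for 45–90 min. Calcium fluorescence was recorded on the FDSS for 110 s after compound addition, before the EC80 agonist (4 uM 54-4) was added.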
The depositor's hits bear a star; u = inconclusive; x = no result given; & = joins results of further samples; [ ] = remark or other dose. No enrichment for hits; 1% or so of the library scored in one or more.

SMILES	TRPML1 inh	PINK1 modulator	CtBP-E1A blk	Six1-Eya2 inh	D2 ag	TRPML1 agonist
CS(=O)(=O)N1CCCCC1c1cc(C(=O)NCc2ccccc2)no1 (configuration not stated)	x	0.2%	-0.3	14.1	-5.8	-0.2
CCS(=O)(=O)N1CCC(NC(=O)C(Cc2ccc(OC)c(OC)c2)NC(C)=O)CC1 (configuration not stated)	-4.3	4.2%	x	0.0	-2.6	-0.5
CC(C)COC(=O)N1CCCC1C(=O)Nc1nccs1 (configuration not stated)	-10.1	-2.6%	0.6	6.0	-2.6	-0.6
CCC(=O)OCc1cc2cccc(C)c2[nH]c1=O	-3.7	-3.2%[38.3 µM]	-1.1	5.4	0.6	-0.1
CC(C)Oc1cccc(C(=O)C2CCCN(C(=O)CCn3cnnn3)C2)c1 (configuration not stated)	6.2	1.5%	6.0	-1.4	-1.4	-0.2
CCOC(=O)C1(C)CCCN(C(=O)c2cccc(C#N)c2)C1 (configuration not stated)	x	-0.1%	-5.7	-18.9	3.8	-0.8
CCOC(=O)C1(CCOc2ccccc2)CCN(Cc2ccc(O)c(OCC)c2)CC1	3.3	3.4%	-7.4	-5.8	8.2	2.0
Cc1ccccc1C(=O)NNC(=O)CSc1nc2ccccc2c(=O)[nH]1	3.8	0.3%	-0.6	9.4	-1.6	-0.4
COc1ccc(NC(=O)Cn2c3ccc(OC)cc3c3nc4n(c(=O)c32)CCS4)cc1	-3.6	2.8%	x	6.3	-0.8	-0.2
CCOC(=O)c1cccnc1SC(CC)C(=O)NCc1ccco1 (configuration not stated)	14.5	6.2%[38.3 µM]	3.1	-0.5	-2.7	-0.1
CC(C)(C)C(=O)Nc1nc(C2CCCN2S(=O)(=O)c2ccc(Cl)cc2)cs1 (configuration not stated)	9.9	0.5%	-2.9	-5.2	-4.3	1.7
CC(=O)c1ccc(O)c(CC=C(C)C)c1O	x	3.3%	4.8	-1.1	-5.6	x
CSc1ccccc1OCc1cc(C(=O)NCc2csc(C(C)C)n2)no1	1.5	-0.1%	-3.7	-7.6	-1.9	1.0
Cc1ccc(Cl)cc1N1CCN(C(=O)C2CCN(S(C)(=O)=O)CC2)CC1	5.8	-0.4%	-6.1	-3.0	-4.3	-0.2
O=C(Nc1ccccc1NC(=O)c1csnn1)c1csnn1	-2.8	1.0%	x	4.6	-1.0	2.1
CCOc1ncccc1C(=O)OCC(=O)Nc1ccc2c(c1)CCC2	-19.7	-0.4%	4.7	2.9	0.4	1.7
CC(C)CC(NC(=O)c1ccc(Cl)cc1)C(=O)OCC(=O)c1ccc2c(c1)NC(=O)CO2 (configuration not stated)	-5.8	1.9%	4.9	-1.8	3.1	1.4
N#CC1=C(N)NC(SCC(=O)c2ccccc2)=C(C#N)C12CCCC2	22.9	1.3%	-13.6	-9.6	0.8	1.0
CC1CCCCC1NCc1cccc([N+](=O)[O-])c1 (configuration not stated)	-13.2	1.2%	-1.0	-1.5	-4.3	3.4
O=C(CCCOc1ccccc1)Nc1ccc(S(=O)(=O)Nc2ccccn2)cc1	21.7	-2.3%	1.3	-1.5	2.3	0.2
Oc1ccc(/C=C/c2nc(-c3ccccc3O)n(-c3ccccc3)n2)cc1	3.6	u	-9.6	-7.8	2.0	1.1
CCn1c(CCNC(=O)c2cccs2)nnc1SCC(=O)NC1CCCCC1	3.6	-0.9%[38.3 µM]	6.9	2.2	-1.1	0.7
O=C(c1ccc(F)cc1)c1ccc(CN2C(=O)c3ccccc3C2=O)o1	7.4	-1.3%	-1.3	13.7	-4.2	3.2
COc1ccc(NS(=O)(=O)c2cc(C(=O)O)ccc2C)cc1	7.9	-1.6%[38.3 µM]	-12.2	-2.8	0.5	-0.4
O=S(=O)(Nc1ccc(Br)cc1)c1ccc2nc(-c3ccccc3)[nH]c2c1	-9.8	3.0%	x	x	x	-0.3

(continued)
SMILES	TRPML1 inh	PINK1 modulator	CtBP-E1A blk	Six1-Eya2 inh	D2 ag	TRPML1 agonist
COc1cc(-c2csc(CCn3nc(C)cc3C)n2)cc(OC)c1OC	-14.4	-1.0%	0.0	-3.4	1.8	1.3
COc1cccc(C2CC(c3ccccc3Cl)Nc3ncnn32)c1 (configuration not stated)	-21.5	0.6%	2.6	0.0	-3.5	0.6
COc1ccc(-c2nc(-c3cccnc3)no2)cc1	4.7	1.5%&-0.6%	0.2	-0.6	-3.0	1.0&-1.1
c1ccc(N2CCN(Cc3ccnc4ccccc34)CC2)cc1	4.9	-2.2%[38.3 µM]	-7.3	0.3	3.8	0.4
COc1ccc(-c2cc(C(F)(F)F)nc(SCC(=O)N3CCOCC3)n2)cc1OC	-24.8	3.0%	5.1	2.0	-0.8	-1.0
CCC(c1nnc(SCC(=O)Nc2nnc(-c3ccccc3)o2)n1Cc1ccccc1)N(C)C (configuration not stated)	5.0	-0.9%	-7.3	-6.7	-2.7	-0.8
COc1cccc(NS(=O)(=O)c2ccc3c(c2)NC(=O)C(C)S3)c1 (configuration not stated)	27.5	-0.7%	2.7	-2.0	2.5	0.1
Cc1ccc2cccc(NC(=O)COc3cc(C)c(Cl)c(C)c3)c2n1	34.7	0.7%	x	x	x	1.0
Cc1cccc(C)c1OCC(=O)Nc1cccc(S(=O)(=O)N2CCCC2)c1	28.2	-0.2%	-8.1	-10.4	4.7	2.0
O=C(NCc1ccccc1)N1CCC(CO)(CCc2ccccc2)CC1	10.7	1.4%	4.1	-7.6	1.3	0.1
CCc1ccc(-c2cc(C)no2)cc1S(=O)(=O)Nc1ccccn1	0.0	2.7%	1.3	2.5	-4.7	-0.8
O=C(O)c1ccc(N2C(=O)c3cccnc3C2=O)cc1	32.0	0.1%	x	-10.7	5.0	-0.2
COCCNC(=O)CSc1nc2sc(C)c(C)c2c(=O)n1-c1ccccc1	-14.0	0.2%	5.6	2.1	-4.5	-0.4
Cc1ncc([N+](=O)[O-])n1CC(=O)Nc1ccc(F)c(Cl)c1	-15.3	8.0%	1.2	-1.5	-3.5	0.2
COc1ccccc1NC(=O)C1=C(C)Nc2c(C(=O)Nc3ccc(C)cc3)cnn2C1c1cccc(OC)c1OC (configuration not stated)	12.5	13.5%	x	x	x	3.3
Cc1cc(Cl)ccc1C(=O)C1CCCN(C(=O)c2cncs2)C1 (configuration not stated)	11.9	0.7%	2.1	-1.1	7.0	0.9
Fc1ccc(-c2ccc(/C=N\n3cnnc3)o2)cc1Cl	0.1	2.9%	-7.7	-8.3	-2.9	0.1
CCOc1ccc(N(C)C(=O)C2CCN(S(=O)(=O)c3ccc4c(c3)CCCN4C(C)=O)CC2)cc1	18.5	-1.2%	x	x	x	0.5
CCc1nnc(NS(=O)(=O)c2ccc(NC(=O)c3cccc(Cl)c3)cc2)s1	-0.2	-1.1%	x	-4.1	3.7	0.5
O=C(COC(=O)CSc1ccc([N+](=O)[O-])cc1)NCCC1=CCCCC1	6.2	1.1%	-11.4	1.8	0.1	3.1
COc1ccc(C(=O)c2[nH]c(N)c(C(=O)NCCc3c[nH]c4ccccc34)c2-c2ccc(Cl)cc2)cc1	x	-0.9%	-1.1	-11.9	x	-0.8
Cc1ccc(S(=O)(=O)N(CC(O)CN2CCOCC2)c2cccc([N+](=O)[O-])c2)cc1 (configuration not stated)	6.7	0.3%	-7.2	0.4	-4.7	0.0
Cc1cc(NC(=O)Nc2ccc(Cl)c(Cl)c2)n(-c2ccccc2)n1	-14.8	u	16.3	-4.3	-4.9	-0.3
Clc1ccc(-c2csc(N/N=C/c3ccco3)n2)cc1	4.8	9.3%	-2.1	-8.5	4.2	-0.5
COc1cc(C(=O)Nc2cc(C)ccc2OCc2cc(=O)n3c(C)csc3n2)cc(OC)c1OC	17.5	2.1%	x	x	x	1.1

Looked up above:
`COCCNC(=O)CSc1nc2sc(C)c(C)c2c(=O)n1-c1ccccc1` @ CtBP-E1A blk: 5.6
`COc1cc(-c2csc(CCn3nc(C)cc3C)n2)cc(OC)c1OC` @ PINK1 modulator: -1.0%

(continued)
SMILES	TRPML1 inh	PINK1 modulator	CtBP-E1A blk	Six1-Eya2 inh	D2 ag	TRPML1 agonist
COc1cc(C(=O)N2CCN(c3cc(Cl)ccc3Cl)CC2)cc(OC)c1OC	38.3	2.2%	3.0	3.0	0.1	-0.2
O=C(NCc1cccnc1)c1ccc(COc2ccccc2Br)cc1	8.1	-0.1%	-3.8	-0.1	5.5	0.7
COc1ccc(N2C(=O)CC(Nc3ccc(F)cc3)C2=O)c([N+](=O)[O-])c1 (configuration not stated)	11.6	0.5%	-3.8	-0.7	-4.3	-0.4
CCC[C@H](CN[C@@H](CNC)[C@H](C)O)NCCc1ccc(OC)cc1	-2.2	-1.5%	-24.2	12.0	-4.5	0.8
C=CCn1c(SCC(=O)N2CCOCC2)nc2sc(CC)cc2c1=O	12.1	0.5%	-7.1	2.3	5.7	2.3
CC(C)N(CC(N)=O)C(=O)c1sc2cc(F)ccc2c1Cl	16.9	0.0%	-13.9	-3.0	-0.8	1.0
O=C(NCc1cccs1)c1ccccc1	10.4	0.8%	3.7	-1.5	-1.5	0.0
COc1ccc(NC(=O)COc2ccc(-n3cnnn3)cc2)cc1OC	-5.5	6.6%	2.3	-2.9	-1.6	-0.2
COc1ccc(CCCNC(=O)CC#N)cc1OC	-6.9	-0.6%	7.9	9.4	-1.5	-0.4
COc1ccc(/C=C/C(=O)NC(=S)NCc2ccccc2)cc1OC	-19.2	5.5%	-18.5	-1.4	14.2	1.3
COc1ccc(C(=O)Nc2ccc3oc(-c4ccc(OC)cc4)nc3c2)cc1	-24.0	1.6%	x	x	x	0.3
COc1cc(C2CC(=O)Nc3cc4c(cc32)OCCO4)cc(OC)c1O (configuration not stated)	10.3	4.6%	x	x	x	-0.5
COc1ccc(S(=O)(=O)Nc2ccc(S(=O)(=O)Nc3nccs3)cc2)cc1	-9.3	-1.2%	0.0	13.8	-1.7	-0.3
O=C(Nc1ccccc1F)c1ccc(-n2cncn2)nc1	-2.3	0.9%	2.8	1.7	-3.5	-0.2
O=C(CC(=O)Nc1ccc(Cl)c(Cl)c1)N/N=C/c1ccc(O)cc1	13.0	5.9%	-14.0	-14.0	-0.8	0.4
Cc1cc(NS(=O)(=O)c2ccc(NC(=O)CSc3nc4sc(C(=O)O)c(C)c4c(=O)[nH]3)cc2)no1	-4.4	-1.7%	0.0	-28.1	-1.0	0.0
O=C(Nn1c(O)c(C=C2N=c3ccccc3=N2)sc1=S)c1cccc(Cl)c1	5.1	9.3%[38.3 µM]	-16.8	-5.8	-1.5	-0.4
CCOc1ccccc1C(=O)NCC(=O)OCC(=O)c1ccc2c(c1)OCCO2	22.0	0.8%	0.4	1.5	-0.1	1.6
N#CC(C(=O)C12CC3CC(CC(C3)C1)C2)c1nc2ccccc2[nH]1 (configuration not stated)	-1.2	5.5%	-2.8	4.7	-1.5	-0.6
CC(=O)N1CCC(C(=O)NC2CC(C)(C)Cc3c2cnn3-c2ccc(F)cc2)CC1 (configuration not stated)	16.9	1.2%	2.2	1.8	-1.7	2.7
Cn1c(SCC(=O)NC(C)(C)C)nnc1-c1cccc(NC(=O)c2ccccc2F)c1	40.8	0.4%	-8.1	-20.1	-4.0	1.4
